High-throughput results as filed in PubChem BioAssay.
CBX7 inh – blocks human CBX7 binding to H3K27me3 peptide; O95931; AlphaScreen His6-CBX7 / biotin-H3K27me3 peptide binding; stronger effect = lower value; normalised signal (fraction of DMSO) (concentration not given with the values); 66,000 tested, 1.1% active; in the data active = normalised signal below about 0.5;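 note: 100 nL library stock added to about 20 µL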
Target sequence (O95931 whole entry, looked up): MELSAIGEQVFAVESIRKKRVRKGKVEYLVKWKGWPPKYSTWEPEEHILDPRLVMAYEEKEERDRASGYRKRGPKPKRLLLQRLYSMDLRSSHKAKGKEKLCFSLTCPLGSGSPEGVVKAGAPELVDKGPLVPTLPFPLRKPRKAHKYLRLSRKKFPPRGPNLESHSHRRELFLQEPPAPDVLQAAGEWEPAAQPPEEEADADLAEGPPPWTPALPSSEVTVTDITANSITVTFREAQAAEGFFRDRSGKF
CBX7 inh z-score – also measured in CBX7 inh; calls as there; z-score; measured here: z-score of CBX7 signal; some inactives read as strong as hits; reference of the scale not given here;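 same signal on another scale; lower means less binding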
* = called active by the depositor. A portion of the library; the hit share may differ from the screen's.

Value order – CBX7 inh	CBX7 inh z-score
> CCOc1ccc(-n2c(Cc3cc(=O)[nH]c(=O)[nH]3)nnc2SC(C)C(=O)OC)cc1 (centres undefined)
→ 1.2	0.4
> CCC(C)[C@@H](C(=O)Nc1ccc(C(C)C)cc1)N1Cc2ccccc2C1=O (some centres undefined)
→ 1	0.014
> O=C(NCC(c1ccccc1)c1ccccc1)c1ccc(C#CC2(O)CCCCC2)cc1
→ 1	-0.012
> Cc1ccc(N2C(=O)CC(c3cccs3)C3=C2CC(C)(C)CC3=O)cc1 (centres undefined)
→ 0.99	-0.085
> O=C(CN1N=C(c2ccccc2)CCC1=O)NCCN1CCC(Cc2ccccc2)CC1
→ 1.1	1.2
> COc1ccc(-c2nc3cc(C)c(Cl)cc3nc2-c2ccc(OC)cc2)cc1
→ 2.3	8.4
> Cc1ccc(NC(=O)CC2Oc3ccccc3NC2=O)c(C)c1 (centres undefined)
→ 0.96	-0.71
> COc1ccccc1/C=C/c1nn2c(-c3ccccc3)nnc2s1
→ 1	1.1
> COc1ccc(Nc2cc(C)nc3ncnn23)cc1
→ 0.93	-1.1
> COc1cc(C(=O)Nc2ccc(-c3nnc(-c4ccco4)o3)cc2)cc(OC)c1OC
→ 1.1	0.99
> CCOc1ccc(-n2ccnc2SCC(=O)Nc2ccc(F)cc2)cc1
→ 0.64	-0.47
> CC1CCC(NC(=O)C2c3cccn3CC(=O)N2CCCN2CCOCC2)CC1 (centres undefined)
→ 1	0.068
> CCOC(=O)c1ccc(NC(=O)c2c(NCc3cccs3)sc3c2CCCC3)cc1
→ 0.67	-4.6
> Cc1ccc(NS(=O)(=O)c2ccc3c(c2)CCN3C(=O)C2CCC2)cc1F
→ 0.96	-1.1
> CCOC(=O)c1c(C)n(-c2ccccc2)c2ccc(OC)cc12
→ 1.1	3.2

(listing goes on)
Value order – CBX7 inh	CBX7 inh z-score
> CC1CC(C)CN(C(=O)CN2C(=O)CSc3ccc(S(=O)(=O)N4CCOCC4)cc32)C1 (centres undefined)
→ 0.9	-1.2
> CCOc1ccccc1CNC(=O)CCN1C(=O)COc2ccccc21
→ 0.95	-1.4
> COc1ccc(NC(=O)CN(c2ccc(C)cc2)S(=O)(=O)c2cccnc2)cc1
→ 1	0.13
> CCC1C(=O)C(CC)C(c2ccccc2)NC1c1ccccc1 (centres undefined)
→ 1.1	5.8
> O=C(NCCOc1ccccc1)c1cc(-c2ccccc2)nc2c(Cl)cccc12
→ 1.2	4.3
> CN(C)c1ccc(CNCCC(c2ccccc2)C2CCOC(C)(C)C2)cc1 (centres undefined)
→ 0.88	-3.4
> CCC1Oc2ccccc2N(CC(=O)NCCOC)C1=O (centres undefined)
→ 0.83	-1.9
> O=C1CN(C(=O)CN2CCOCC2)c2ccccc2N1
→ 1	0.85
> COc1ccc2nc(C)cc(Nc3ccc(N4CCOCC4)cc3)c2c1
→ 0.7	-0.36
> Cn1nc(-c2ccc(N3CCOCC3)c(NS(C)(=O)=O)c2)c2ccccc2c1=O
→ 1	0.39
> O=C(COc1ccc(F)cc1)Nc1c(C(=O)c2ccccc2)oc2ccccc12
→ 1	0.21
> Cc1ccccc1CN1C(=O)c2ccccc2S(=O)c2ccc(C(=O)N3CCOCC3)cc21 (centres undefined)
→ 1.1	2.8
> CCCCNC(=O)Cn1ncc2c1-c1cc(C)ccc1OC2
→ 1.1	1.4
> CCOc1ccc(N2C(=O)CC(N3CCN(C(c4ccc(F)cc4)c4ccc(F)cc4)CC3)C2=O)cc1 (centres undefined)
→ 0.88	-6.3
> CCOC(CNC(=O)c1nc(-c2ccc(C)cc2)oc1C)OCC
→ 1	0.028

New compounds follow.
Value order – CBX7 inh	CBX7 inh z-score
> CC1CN(C)C(C)CC1O (centres undefined)
→ 0.96	-0.76
> COc1ccc(-c2nc(S(=O)(=O)c3ccc(C)cc3)c(N3CCCCC3)o2)cc1
→ 0.71	-0.39
> Cc1noc(C)c1S(=O)(=O)Nc1ccc(Cl)cc1
→ 1	1.7
> CCOc1ccc(Nc2ncnc3c2c(-c2ccccc2)cn3-c2ccc(F)cc2)cc1
→ 1.1	3.4
> COc1ccc(Cl)cc1NC(=O)CSc1nccn1-c1cccc(C)c1
→ 0.77	-0.23
> CCCCOc1ccc(C(=O)Nc2nc3c(s2)CCc2ccc(OC)cc2-3)cc1
→ 0.97	-0.39
> CCOC(=O)c1[nH]c2c(c1Cc1ccccc1)C(=O)CC(c1ccc(OC)cc1)C2 (centres undefined)
→ 0.87	-0.88
> Cn1c(C(=O)N2CCC(C(=O)NCCN3CCOCC3)CC2)cc2sccc21
→ 1	0.59
> O=C1Nc2ccc(Br)cc2C1(O)Cc1ccncc1 (centres undefined)
→ 0.81	-2.1
> O=c1c2cnn(-c3ccccc3)c2nc(-c2ccccc2F)n1-c1ccc(F)cc1
→ 0.9	-4
> CC(C)Cn1cc(C(=O)NC2CCCCC2)c2c3ccccc3n(C)c2c1=O
→ 1	0.44
> Cc1cccc(NC(=O)c2oc3ccc(S(=O)(=O)N4CCC5(CC4)OCCO5)cc3c2C)c1C
→ 0.93	-0.92
> CC(C)(C)c1ccc(OCc2nc(-c3ccccn3)no2)c(Br)c1
→ 1.1	1.2
> COc1cccc(NC(=O)N(Cc2cccc(C)c2)c2cccnc2)c1
→ 1.4	0.76
> O=C(Nc1ccc(O)c(-c2nc3ccccc3s2)c1)c1cccc(Br)c1
→ 1.1	1.6

(more compounds)
Value order – CBX7 inh	CBX7 inh z-score
> Cc1nc2c(-c3ccc(Cl)cc3)c[nH]n2c(=O)c1Cc1ccccc1
→ 0.93	-1.2
> Cc1ccc2[nH]c3c(c2c1)CN(Cc1ccccc1)CC3
→ 0.8	-5.3
> CCc1ccc(NC(=O)C2CC(c3ccc(OC)cc3)=NO2)cc1 (centres undefined)
→ 1	1.8
> Cc1ccc(-c2nnc(NCc3ccccc3)c3ccccc23)cc1S(=O)(=O)NCc1nc2ccccc2[nH]1
→ 0.88	-3.1
> O=C(NCc1ccccc1Cl)c1cc(=O)[nH]c2ccccc12
→ 0.98	-0.018
> CC(=O)Nc1cccc(NC(=O)CN2C(=O)CC(c3ccccc3)Sc3ccccc32)c1 (centres undefined)
→ 1.1	1.2
> Cc1nc(Nc2ccc(Cl)cc2)c2c3c(sc2n1)CCCC3
→ 0.7	-8
> O=C(Nc1nnc(COc2ccc(F)cc2)s1)c1cccc2ccccc12
→ 1.2	0.79
> COCCNc1oc(-c2ccc(Cl)cc2)nc1C#N
→ 0.98	-0.68
> Cc1ccc(NC(=O)C23CC4CC(C2)CC(n2cncn2)(C4)C3)cc1Cl
→ 1.1	1.1
> FC(F)(F)c1cccc(Nc2ncnc3ccccc23)c1
→ 1.1	2.8
> COc1ccc2c(c1)c(=O)c(S(=O)(=O)c1ccc(C)cc1)cn2Cc1ccc(Cl)cc1
→ 0.96	-1.3
> CCCCCCCNC(=O)c1c[nH]c2ccc(S(=O)(=O)N(C)c3ccccc3OCC)cc2c1=O
→ 1	0.33
> CCOCCCNC(=O)c1cc2sccc2n1Cc1ccc(Cl)cc1
→ 1.1	1.4
> CC(NC(=O)c1ccc2c(c1)N(Cc1ccccc1F)C(=O)c1ccccc1S2)c1ccccc1 (centres undefined)
→ 0.99	-0.33

Next part:
Value order – CBX7 inh	CBX7 inh z-score
> Cc1c(C(=O)NCCc2ccccc2)oc2ccc(S(=O)(=O)N3CCCCCC3)cc12
→ 0.93	-1.3
> O=C(Cn1ncc2ccsc2c1=O)NCc1ccccc1
→ 1	0.22
> Cc1ccn2cc(-c3cccc(NC(=O)CCC(=O)O)c3)nc2c1
→ 0.99	-0.1
> COc1ccc(NC(=O)c2nn(-c3ccc(Cl)cc3)c(=O)c3ccccc23)cc1OC
→ 0.8	-4.8
> NC(=O)C1CCN(Cc2nc(-c3ccccc3)no2)CC1
→ 1.3	2.5
> Cc1cc(Cl)ccc1OCc1nc(-c2ccccc2)no1
→ 1.4	12
> CN(C)CCCN1C(=O)CCCCc2sc3c(c21)CCCC3
→ 1	0.28
> CCCNC(=O)C1CC(c2ccc(OC)c(OC)c2)=NO1 (centres undefined)
→ 1	1.8
> O=C(NCC1CCCO1)c1ccc2c(c1)N(Cc1ccccc1F)C(=O)c1ccccc1S2 (centres undefined)
→ 0.98	-1.2
> CC1CCCCN1C(=O)c1cc(-c2ccccc2O)on1 (centres undefined)
→ 0.97	-0.96
> Cc1c(C(=O)NC2CCC(C)CC2)oc2ccc(S(=O)(=O)N3CCC4(CC3)OCCO4)cc12 (centres undefined)
→ 1.1	0.78
> Cc1ccccc1NC1c2ccccc2C(=O)N1Cc1ccccc1 (centres undefined)
→ 1	0.59
> Cn1c(=O)[nH]c(=O)c2c1nc(CN1CCN(c3cccc(Cl)c3)CC1)n2CCc1ccccc1
→ 0.92	-3
> CCCN(C(=O)CCc1nc(-c2ccc(C)cc2)no1)c1ccccc1F
→ 1	1.8
> C(=C\c1ccc2cccc(OCc3ccccc3)c2n1)/c1ccc2c(c1)OCO2
→ 1	-0.037

The list continues.
Value order – CBX7 inh	CBX7 inh z-score
> O=C(Nc1ccc(S(=O)(=O)Nc2ncccn2)cc1)c1ccccc1Cl
→ 1	0.55
> Cc1ccc(NC(=O)c2ccc3c(c2)N(Cc2ccc(F)cc2)C(=O)CS3)c(Cl)c1
→ 1.2	2.3
> Cc1ccc(Oc2cc([N+](=O)[O-])cc3c2C(=O)Nc2ccccc2O3)cc1
→ 0.58	-4
> CCc1ccc(N2CC(c3nc4ccccc4n3CCOc3ccc(C)cc3)CC2=O)cc1 (centres undefined)
→ 0.97	-0.57
> O=C(c1ccccc1)c1ccc(-c2[nH]c(-c3cccs3)nc2-c2ccccc2)cc1
→ 0.68	-0.32
> Cc1cccc(C)c1OCCSc1nc2ccccc2n1CC(=O)O
→ 0.86	-1.5
> Cc1cccc(C)c1NC(=O)CSc1nnnn1-c1ccc(C(=O)O)cc1
→ 1	0.76
> O=C(Nc1nc(-c2ccccn2)cs1)c1cccc(Oc2ccccc2)c1
→ 0.039*	-17*
> CCOCCCNC(=O)Cc1c(C(=O)O)[nH]c2ccc(Cl)cc12
→ 1	0.43
> Cc1c(C(=O)NCc2ccc3c(c2)OCO3)oc2ccc(S(=O)(=O)N3CCCCCC3)cc12
→ 0.87	-2.4
> Cc1ccc(-n2ncc3c(N(CCO)CCO)ncnc32)c(C)c1
→ 0.98	-0.53
> O=C(Nc1cccc(Br)c1)c1cccc(S(=O)(=O)N2CCCCCC2)c1
→ 1.1	2.5
> CCCOc1ccc(N2C(=O)CC(N3CCN(c4ccc(Cl)cc4)CC3)C2=O)cc1 (centres undefined)
→ 1	0.083
> O=C1CC(c2cccc(Cl)c2)Sc2ccccc2N1 (centres undefined)
→ 0.99	-0.1
> Cc1cccc(C(=O)NCCc2nc3ccccc3n2Cc2ccccc2C)c1
→ 0.86	-2.1

Continuation:
Value order – CBX7 inh	CBX7 inh z-score
> Cc1nc(-c2ccccc2)sc1C(=O)Nc1cccc(-c2cn3ccccc3n2)c1
→ 1	0.039
> Clc1cc(Br)ccc1OCc1nc(-c2ccccn2)no1
→ 0.75	-4.4
> COc1cccc(NC(=O)CSc2nc(Nc3cc(OC)cc(OC)c3)c3ccccc3n2)c1
→ 1	2.2
> CN(C)CCNC(=O)CN1C(=O)CSc2ccc(S(=O)(=O)N3CCOCC3)cc21
→ 0.88	-1.4
> O=C(C1CCCN(S(=O)(=O)c2cccc3cccnc23)C1)N1CCN(c2ccccc2F)CC1 (centres undefined)
→ 0.95	-1.4
> Cc1ccccc1C1CC(c2cccs2)Nc2ncnn21 (centres undefined)
→ 0.86	-2
> Cc1nn(CC(=O)Nc2ccc(O)cc2)c(=O)c2ccccc12
→ 1	0.044
> Cc1ccc2c(c1)-c1c(cnn1CC(=O)N1CCC(C)CC1)CO2
→ 1	-0.13
> CCOc1ccc(-c2nc(SCC(=O)NCCCOC)c(-c3ccc(F)cc3)[nH]2)cc1
→ 0.89	-0.45
> O=C(CSc1nnc(CNC(=O)c2cccs2)o1)Nc1cccc(F)c1
→ 1.1	3.5
> CC(C)(C)c1cc(Sc2nnc(-c3ccc(Cl)cc3)c3ccccc23)cc(C(C)(C)C)c1O
→ 0.84	-3.6
> CSc1c(CC(=O)Nc2ccc(C)cc2)n(C)c2ccc(C)cc12
→ 1	0.34
> O=C(NCCCn1ccnc1)C(=O)NCCc1ccccc1
→ 1.2	2.1
> Cc1ccn2c(Nc3c(C)cccc3C)c(-c3ccsc3)nc2c1
→ 0.83	-0.23
> Cc1ccc(C(=O)Nc2nnc(COc3ccc(C(C)(C)C)cc3)s2)cc1
→ 0.98	-0.49

(list continues)
Value order – CBX7 inh	CBX7 inh z-score
> O=c1[nH]c2ccc(S(=O)(=O)N3CCC(Cc4ccccc4)CC3)cc2[nH]c1=O
→ 0.94	-1.6
> CCN(CC)c1nc2nonc2nc1Nc1cccc(Br)c1
→ 0.97	-0.41
> COc1cc(OC)cc(-c2nc3nc(C)c(CCC(=O)NCCCN4CCCC4=O)c(C)n3n2)c1
→ 0.98	-0.085
> CCCNC(=O)C(=O)NCCc1c[nH]c2ccccc12
→ 1	0.83
> CC(=O)N1CCc2cc(S(=O)(=O)NC(C)C)ccc21
→ 0.88	-0.49
> Cc1cccc(NC(=O)C(CC(C)C)N2C(=O)c3ccccc3C2=O)c1 (centres undefined)
→ 1	0.62
> Cc1nc2c(C(=O)NCc3ccccn3)cnn2c(C)c1Cc1ccccc1Cl
→ 0.8	-2.1
> Cn1c2ccccc2c2c(C(=O)NCc3cccnc3)cn(C3CCCCC3)c(=O)c21
→ 0.99	-0.37
> Cc1ccc(C(=O)Nc2ncc(Cc3cccc(Cl)c3)s2)cc1
→ 1.1	1.7

Full records as entered above. Order of values: CBX7 inh	CBX7 inh z-score
Clc1cc(Br)ccc1OCc1nc(-c2ccccn2)no1 across the screens: 0.75	-4.4
Cn1c2ccccc2c2c(C(=O)NCc3cccnc3)cn(C3CCCCC3)c(=O)c21 across the screens: 0.99	-0.37
Cn1c(C(=O)N2CCC(C(=O)NCCN3CCOCC3)CC2)cc2sccc21 across the screens: 1	0.59
CCOc1ccc(-n2ccnc2SCC(=O)Nc2ccc(F)cc2)cc1 across the screens: 0.64	-0.47
CCC1C(=O)C(CC)C(c2ccccc2)NC1c1ccccc1 (centres undefined) across the screens: 1.1	5.8
